Calb FLC = C. albicans growth inhibition with fluconazole, primary screen, CaCi-2 strain, Alamar Blue fluorescence. C. albicans CaCi-2 (fluconazole-resistant clinical isolate) + fluconazole, 48 h. growth inhibition, % (concentration not given with the values). 300,000 compounds, 0.57% hits. AID 1979, 2009;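 active means most replicates above 75%; inconclusive means exactly half above 75%; inactive means most below 75%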;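 further: all wells also contain fluconazole at 8 µg/ml as a sub-toxic cotreatment; 0% = median of DMSO wells and 100% = median of geldanamycin control wells; wells of about 8 µL received 7.5 nL stock; the first replicate is given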
FGF22 binding = binders of human FGF22 protein, primary screen, FGF22 synaptogenesis inhibitor project, biophysical, thermal shift, single point; 340,000 compounds, 1.5% hits; calls only at 9.99 µM; recombinant FGF22 thermal shift, SYPRO orange fluorescence; percent of sucrose octasulfate shift, DMSO zero;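 active means melting point raised past a set limit in the mean and every replicate; inconclusive means no clear call; three in four hits are not shown here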
Target sequence (Q9HCT0 whole entry, looked up): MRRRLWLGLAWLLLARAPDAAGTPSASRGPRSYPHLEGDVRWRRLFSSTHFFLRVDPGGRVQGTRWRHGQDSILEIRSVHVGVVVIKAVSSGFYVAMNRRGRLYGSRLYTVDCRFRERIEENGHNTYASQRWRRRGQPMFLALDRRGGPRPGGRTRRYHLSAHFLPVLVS
rRNA inh HTS = reduced GFP signal of wild-type E. coli, primary screen, bacterial rRNA inhibitor project, GFP/RFP fluorescence, OD600, single point. 350,000 compounds, 1.6% hits. E. coli WT GFP vs humanized-ribosome RFP mutants, 24 h; stronger effect = lower value; DMSO median 0, no signal -100. GFP signal change (wild-type ribosome), % (test concentration not listed);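 active means significant combined selectivity score with lowered wild-type GFP, culture density cut under 30%, mutant RFP and density less affected; inactive means any of these conditions unmet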; further: one replicate is shown; some compounds called inactive have numbers as strong as hits
Beta apoptosis = inhibitors of cytokine-induced beta cell apoptosis, primary screen, luminescence. 300,000 compounds, 0.8% hits. protection from apoptosis, % (test concentration not listed). AID 435005, 2010. INS-1E cytokine-induced death, ATP luminescence, 48 h; percent of positive-control rescue, neutral wells zero;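 active means all replicates at 75% or more, or half of them and the mean; inconclusive means half reach 75% but not the mean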;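 further: 0% = cytokine-treated negative control wells and 100% = positive control rescue; higher means more ATP so stronger rescue from cytokine killing; wells of about 40 µL received 100 nL stock; the first replicate is given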
MLL AF4-AF9 inh = inhibitors of AF4 peptide binding to AF9, primary screen, biochemical, AlphaScreen, biotin-AF4 peptide, FLAG-AF9, single point; Protein AF-9 (Homo sapiens), P42568; AID 651704, 2012; inhibition, % at 10 µM; 350,000 compounds, 0.47% hits;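 active means every replicate reaching a set inhibition limit, whatever the replicate mean, cut at about 25% in these data; inconclusive means mean inhibition reaches that limit but some replicates miss it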;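 further: 0% = plate neutral control median and 100% = total signal loss; the record names both 10 and 1 µM as test concentration; the first replicate is given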
Target sequence (P42568 whole entry, looked up): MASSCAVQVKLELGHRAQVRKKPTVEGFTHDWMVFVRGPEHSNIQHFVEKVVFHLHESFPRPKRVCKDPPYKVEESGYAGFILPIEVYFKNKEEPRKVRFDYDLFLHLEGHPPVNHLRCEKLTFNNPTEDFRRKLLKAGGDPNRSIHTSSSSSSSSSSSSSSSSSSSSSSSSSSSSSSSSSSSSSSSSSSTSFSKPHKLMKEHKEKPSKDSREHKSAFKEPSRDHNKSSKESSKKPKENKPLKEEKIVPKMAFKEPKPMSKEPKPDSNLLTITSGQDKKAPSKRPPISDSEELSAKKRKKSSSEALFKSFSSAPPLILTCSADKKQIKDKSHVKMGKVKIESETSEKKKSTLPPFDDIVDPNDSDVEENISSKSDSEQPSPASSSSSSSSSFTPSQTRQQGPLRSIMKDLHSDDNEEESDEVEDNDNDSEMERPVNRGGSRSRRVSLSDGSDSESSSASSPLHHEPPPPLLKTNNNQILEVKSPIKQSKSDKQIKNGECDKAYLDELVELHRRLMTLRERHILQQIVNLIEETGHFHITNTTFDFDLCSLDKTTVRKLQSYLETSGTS
ALR inh = inhibitors of human ALR sulfhydryl oxidase, primary screen, biochemical, H2O2 detection, HRP-luminol luminescence, single point; FAD-linked sulfhydryl oxidase ALR (Homo sapiens), P55789; purified ALR, DTT oxidation; inhibition, % (concentration not given with the values); 290,000 compounds, 3.8% hits;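 active means mean and each replicate at 75% or more; inconclusive means only one of the two met; inactive means neither met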;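 further: stock transfer was 7.5 nL into about 7.5 µL; 0% = neutral wells and 100% = wells with inactivated enzyme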
Target sequence (P55789 whole entry, looked up): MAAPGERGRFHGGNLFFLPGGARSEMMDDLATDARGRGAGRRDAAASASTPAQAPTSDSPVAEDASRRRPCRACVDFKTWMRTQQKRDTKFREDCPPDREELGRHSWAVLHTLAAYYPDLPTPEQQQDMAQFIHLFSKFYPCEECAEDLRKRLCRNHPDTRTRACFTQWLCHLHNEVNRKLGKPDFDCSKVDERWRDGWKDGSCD
RanGTP-Imp inh = inhibitors of RanGTP-importin-beta interaction, primary screen, biochemical, FRET, CFP-Ran, YFP-importin-beta, homogeneous. cell-free CFP-Ran/YFP-importin-beta FRET ratio. AID 2216, 2009. Ran GTPase (GTP-bound) - importin-beta complex. inhibition, % (concentration not given with the values). 300,000 compounds, 1.1% hits;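 active means most replicates above 15%; inconclusive means exactly half above 15%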;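 further: 0% = DMSO wells and 100% = Ran loaded with GDP instead of GTP; wells of about 40 µL received 100 nL stock; the first replicate is given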
T cruzi inh = inhibitors of intracellular T. cruzi growth, primary screen, luminescence, NIH3T3 host cells | 300,000 compounds, 1.4% hits | inhibition, % (concentration not given with the values) | T. cruzi beta-gal in NIH3T3, 90 h;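 active means mean inhibition across valid replicates above about 55%, limit read from the data; inconclusive means mean below that limit but half or more replicates reach it; inactive means mean below it, under half of replicates reach it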;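 further: signal also drops with host cell toxicity which is not excluded here; 0% = plate median of DMSO wells and 100% = zero luminescence signal; higher percent means less beta-gal luminescence so fewer parasites; stock transfer was 50 nL into about 50 µL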
rRNA inh HTS OD600 = further read-out of rRNA inh HTS, marked with its call; OD600 change, %; measured here: OD600 growth;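 optical density of the mix in the first replicate; 0 = DMSO median and -100 = no signal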
rRNA inh HTS RFP = second read-out of rRNA inh HTS, no call of its own (marks repeat the call); RFP signal change, %; measured here: RFP humanized mutant strains;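 first replicate; 0 = DMSO median and -100 = no signal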
* hit, by the source's call; i = inactive; ? = inconclusive; · = no result given.

SMILES,Calb FLC,FGF22 binding,rRNA inh HTS,rRNA inh HTS OD600,rRNA inh HTS RFP,Beta apoptosis,MLL AF4-AF9 inh,ALR inh,RanGTP-Imp inh,T cruzi inh
O=C(Nn1c(COc2ccccc2)nc2ccccc2c1=O)C(Cl)(Cl)Cl,20,i,-15*,3.1*,5.3*,-3,-3.4,97*,1.5,-9
N#Cc1ccsc1NC(=O)COc1ccc(-c2nnco2)cc1,-8,·,·,·,·,-3,·,-3,-5.6,-6
COc1ccc(/C=C/C(=O)OCC(=O)Nc2ccc(Cl)cc2F)cc1S(=O)(=O)N1CCOCC1,-3,i,5,-1,4.4,-9,-4.8,-4,2.1,-1
CCOc1ccc(N(CC(=O)Nc2ccccc2)S(C)(=O)=O)cc1,-2,·,·,·,·,-3,·,-5,-3.4,-7
Cc1cc(C)n(C(=O)Cn2nc(C(F)F)cc2C)n1,9,·,·,·,·,-4,·,-1,-0.4,-13
CC(C)CN(C(=O)CC1OC(=O)c2ccccc21)c1c(N)n(Cc2ccccc2)c(=O)[nH]c1=O (stereo not drawn),-9,i,14,12,-4.3,-5,0.5,-20,-2.3,-1
O=C(O)CNS(=O)(=O)c1cccc2nsnc12,7,·,·,·,·,·,·,-5,?,-17
CC(C)C1N(C(=O)N(C)C)CCN1S(=O)(=O)c1ccccc1 (stereo not drawn),-24,i,1,-4,-4.2,1,-5.4,-1,3.6,1
Cc1cc(C)nc(NS(=O)(=O)c2ccc(NC(=O)c3ccc(S(=O)(=O)N(C)C)cc3)cc2)n1,-2,i,-6,-1,-7.1,·,1.5,-18,1.9,5
CCCOc1ccc(N2C(=O)CC(SC(=NCC)Nc3cccc(F)c3)C2=O)cc1 (stereo not drawn),-6,·,·,·,·,5,·,-3,2.2,6
O=C(Oc1ccc(C(=S)N2CCOCC2)cc1Br)c1ccccc1F,-3,·,·,·,·,1,·,-1,6.9,9
COCCSc1ccccc1C(=O)NCc1ccco1,14,·,·,·,·,-8,·,0,1.5,35

Random excerpt: 2 compounds from above
SMILES,Calb FLC,FGF22 binding,rRNA inh HTS,rRNA inh HTS OD600,rRNA inh HTS RFP,Beta apoptosis,MLL AF4-AF9 inh,ALR inh,RanGTP-Imp inh,T cruzi inh
N#Cc1ccsc1NC(=O)COc1ccc(-c2nnco2)cc1,-8,·,·,·,·,-3,·,-3,-5.6,-6
CC(C)CN(C(=O)CC1OC(=O)c2ccccc21)c1c(N)n(Cc2ccccc2)c(=O)[nH]c1=O (stereo not drawn),-9,i,14,12,-4.3,-5,0.5,-20,-2.3,-1

Returning to the listing; the 4 compounds before the break are reprinted first.
SMILES,Calb FLC,FGF22 binding,rRNA inh HTS,rRNA inh HTS OD600,rRNA inh HTS RFP,Beta apoptosis,MLL AF4-AF9 inh,ALR inh,RanGTP-Imp inh,T cruzi inh
Cc1cc(C)nc(NS(=O)(=O)c2ccc(NC(=O)c3ccc(S(=O)(=O)N(C)C)cc3)cc2)n1,-2,i,-6,-1,-7.1,·,1.5,-18,1.9,5
CCCOc1ccc(N2C(=O)CC(SC(=NCC)Nc3cccc(F)c3)C2=O)cc1 (stereo not drawn),-6,·,·,·,·,5,·,-3,2.2,6
O=C(Oc1ccc(C(=S)N2CCOCC2)cc1Br)c1ccccc1F,-3,·,·,·,·,1,·,-1,6.9,9
COCCSc1ccccc1C(=O)NCc1ccco1,14,·,·,·,·,-8,·,0,1.5,35
O=c1c(C/C=C/c2ccccc2)c(O)ccn1Cc1ccc(Cl)cc1Cl,-2,·,-19,-17,0.2,-5,-1.6,-5,-5.7,-4
CC(=O)Nc1ccc(S(=O)(=O)N2CCN=C2SCc2ccc([N+](=O)[O-])cc2)cc1,9,i,4,3,-0.9,40,1.4,99*,0.6,4
COc1cccc(CN2CCN(c3nc4nonc4nc3NC3CC3)CC2)c1,-8,i,6,1,2.0,7,0.6,-21,6.1,7
CCc1noc(C)c1C(=O)N1CCN(S(=O)(=O)c2c(C)cc(C)cc2C)CC1,·,i,-1,-5,1.1,1,11,-2,·,·
CN(C)C(=O)[C@H]1C[C@H]1[C@@H](O)[C@H](CO)NC(=O)[C@H](COCc1ccccc1)NC(=O)OC(C)(C)C,-5,i,-1,13,20,2,-0.6,0,-4.6,-19
COc1ccc(-c2cn3c(C)c(C(=O)Nc4cccc(NC(C)=O)c4)sc3n2)cc1,21,·,·,·,·,14,·,29,8.5,18
c1ccc2c(NCCc3c[nH]c4ccccc34)c3ccccc3nc2c1,12,i,3,2,-1.9,·,44*,0,91*,63*
CC(=O)Nc1ccc(C(=O)OCc2ccccc2Cl)cc1,?,i,-7,-8,-3.2,-1,-1.7,2,-1.8,-7
COc1ccc(C(C)NC(=O)c2ccc(Cl)cc2)cc1OC (stereo not drawn),0,·,·,·,·,-14,·,-6,7.7,-34
CCN(CC)C(=O)C(=O)c1cccn1-c1ccccc1C#N,6,·,·,·,·,4,·,-26,-2.7,-14
CC(C(=O)NCC(=O)Nc1ccc(F)c(F)c1F)N1CCN(Cc2ccc(C#N)cc2)CC1 (stereo not drawn),·,i,0,11,-2.0,-1,-2.4,-3,·,·
CCOC(=O)c1ccc(NC(=O)CCc2nc(-c3cccc(C)c3)no2)cc1,2,·,·,·,·,-6,·,-1,?,20
COCC(C)n1c(COc2ccccc2F)nnc1SCC(=O)c1c(N)n(C)c(=O)n(C)c1=O (stereo not drawn),-6,·,-15,-6,-2.1,-5,1.0,2,-1.7,4
COc1ccc(C2NC(=O)NC(C)=C2C(=O)OC2CCC(C)CC2)cc1 (stereo not drawn),5,i,1,1,-5.6,-3,0.0,60,-3.7,17
COc1ccc(C)cc1NC(=O)C(OC(=O)c1cnccn1)c1ccccc1 (stereo not drawn),-11,i,-4,0,-1.2,-7,-11,-7,-1.8,-1
COC(=O)C1=C(C)N(Cc2ccccc2)C(=NCc2ccccc2)N[C@H]1c1ccccc1,·,i,-57,-82,-25,5,10,-10,·,·
COc1ccc(N2CCN(C(=O)CCC(=O)N3Cc4ccccc4Oc4ncccc43)CC2)cc1,14,i,-6,-6,2.7,5,3.6,90*,1.7,-4
CCOc1ccc(CC(C(N)=O)C(N)=O)cc1CN(C)C,-3,·,·,·,·,-1,·,6,8.3,-13
CC1CCCCC12NC(=S)N(c1ccccc1)N2 (stereo not drawn),-1,i,·,·,·,0,-6.5,11,0.3,8
Cc1cccc(NS(=O)(=O)c2ccc([N+](=O)[O-])cc2)n1,6,i,5,3,-4.9,·,1.8,-24,-1.2,6
Cc1ccc(NC(=S)/N=C(\N)Nc2nc(C)c3ccccc3n2)cc1C,19,i,-13,-9,-0.3,5,-2.8,-6,-5.0,13
O=C(CN1CCN(c2ccccc2F)CC1)Nc1nnc(C(F)(F)F)s1,86*,i,-23,-22,-4.1,3,-2.2,-1,2.7,2
COc1ccc(NC(=O)CSc2nncc(=O)n2N)cc1OC,-1,i,·,·,·,-2,-1.4,87*,1.1,-22
CCN(CC)S(=O)(=O)c1ccc(OC)c(NC(=O)c2cc([N+](=O)[O-])ccc2Cl)c1,2,·,·,·,·,19,·,-2,-3.0,50
COc1ccc2oc(C(=O)NCc3ccco3)c(C)c2c1,14,i,-31*,-12*,2.2*,-3,0.7,-5,-0.4,0
COc1ccc(NC(=O)CN(C)S(=O)(=O)c2cnc[nH]2)cc1Cl,20,i,0,7,0.9,-5,-9.3,-1,4.7,37
Cc1ccc(S(=O)(=O)N2CCC(C(=O)Nc3nnc(C)s3)CC2)cc1,-8,i,2,4,-0.7,-1,1.0,·,0.8,-6
COc1ccc(CCn2c(O)c(C=Nc3cccc(F)c3)c(=O)[nH]c2=O)cc1OC,5,i,16,17,2.1,·,1.4,-18,-3.9,-12
Cc1cccc(NC(=O)C2(C)CC3c4ccccc4C2c2ccccc23)c1 (stereo not drawn),-4,·,·,·,·,8,·,-30,-1.6,0
O=[N+]([O-])c1ccc(S(=O)(=O)N2CCN(c3ccc(N4CCOCC4)nn3)CC2)cc1,-4,i,17,18,2.1,-8,1.6,-3,1.4,60*
CCOC(=O)Cc1ccc2sc(-c3ccccc3)nc2c1,-9,·,·,·,·,4,·,·,-0.4,-3
CCOc1ccccc1-c1cc(C(=O)N/N=C/c2ccc(O)c(OC)c2)c2ccccc2n1,0,·,·,·,·,6,·,29,7.2,-3
C=CCN1C(=O)N(c2ccc(Cl)cc2)C(=O)C1CC(=O)Nc1ccc(F)cc1 (stereo not drawn),-9,i,-5,7,6.6,-1,-4.0,-24,0.8,-25
COc1ccc(CCNC(=O)C(=O)NCC2CCCN2S(=O)(=O)c2ccccc2)cc1OC (stereo not drawn),-3,i,-2,2,1.1,-4,-9.0,·,2.2,-13
O=C(COC(=O)CCCCCN=C1NS(=O)(=O)c2ccccc21)Nc1ccc(Cl)c(Cl)c1,-12,i,-2,-5,8.8,-6,0.9,0,?,10
CCC(=O)N/N=C/c1ccc(-c2ccc([N+](=O)[O-])cc2)o1,-13,·,11,10,-0.1,·,0.7,-4,0.5,1
CCOc1ccc(S(=O)(=O)N2CCC(C(=O)NC3CC3)CC2)cc1C,-3,i,7,13,0.6,1,0.7,1,-2.5,-5
O=C(c1cccnc1NCc1ccc(F)cc1)N1CCOCC1,5,·,·,·,·,-4,·,-1,-2.8,0
O=S(=O)(c1ccccc1)N1CCN(C(=S)Nc2ccc(Br)cc2)CC1,8,i,-22,-24,-0.1,-6,0.6,-28,·,·
CN(CC(=O)Nc1ccccc1N1CCCC1)S(=O)(=O)c1ccc(F)cc1,-2,i,-6,-2,1.5,-10,-16,45,·,-3
CN(C)c1ccc(/C=C2/SC(=O)N(CCN=C3NS(=O)(=O)c4ccccc43)C2=O)cc1,-3,i,·,·,·,4,2.5,·,-3.9,8
CCn1c(COc2cc(C)ccc2C(C)C)nnc1SCC(=O)Nc1nccs1,12,i,-3,-3,-1.9,-5,-1.9,2,-1.9,-5
CCOc1ccc(NC(=O)CN(C)C(=O)CCCOc2ccc(Cl)c(C)c2)cc1OCC,32,i,-6,0,-1.9,-5,-3.4,-6,2.8,25
COc1cc([N+](=O)[O-])cc(/C=N/NC(=O)CSc2ccccn2)c1O,-20,i,-12,-5,-1.0,-12,-8.6,17,0.2,13

Assay outcomes deposited in PubChem by Broad Institute.

The list is partial; count on the stated rates, not on these rows.
